Compound activity deposited in PubChem BioAssay by several laboratories.
rRNA inh HTS = reduced GFP signal of wild-type E. coli, primary screen, bacterial rRNA inhibitor project, GFP/RFP fluorescence, OD600, single point | E. coli WT GFP vs humanized-ribosome RFP mutants, 24 h; hits give low values; DMSO median 0, no signal -100 | GFP signal change (wild-type ribosome), % (test concentration not listed) | 1.6% of 350,000 active | AID 720706, 2013;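 active = significant combined selectivity score with lowered wild-type GFP, culture density cut under 30%, mutant RFP and density less affected; inactive = any of these conditions unmet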; also: one replicate is shown; some compounds called inactive have numbers as strong as hits
T cruzi repl = inhibitors of intracellular T. cruzi growth, primary screen, luminescence, NIH3T3 host cells. T. cruzi beta-gal in NIH3T3, 90 h. 1.4% of 300,000 active. AID 1885, 2009. inhibition, % (no concentration beside the values);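 active = mean inhibition across valid replicates above about 55%, limit read from the data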;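 also: signal also drops with host cell toxicity which is not excluded here; 0% = plate median of DMSO wells and 100% = zero luminescence signal; higher percent means less beta-gal luminescence so fewer parasites; stock transfer was 50 nL into about 50 µL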
FGF22 binding = binders of human FGF22 protein, primary screen, FGF22 synaptogenesis inhibitor project, biophysical, thermal shift, single point. Fibroblast growth factor 22 (Homo sapiens), Q9HCT0. 1.5% of 340,000 active. recombinant FGF22 thermal shift, SYPRO orange fluorescence; percent of sucrose octasulfate shift, DMSO zero. calls only at 9.99 µM;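 active = melting point raised past a set limit in the mean and every replicate; three in four hits are not shown here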
Target sequence (Q9HCT0 whole entry, looked up): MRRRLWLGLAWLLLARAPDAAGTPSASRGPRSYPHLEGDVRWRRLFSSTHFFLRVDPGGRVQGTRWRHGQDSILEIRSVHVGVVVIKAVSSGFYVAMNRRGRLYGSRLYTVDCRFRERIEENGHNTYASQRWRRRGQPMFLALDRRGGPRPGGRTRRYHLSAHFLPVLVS
AF4-AF9 inh = inhibitors of AF4 peptide binding to AF9, primary screen, biochemical, AlphaScreen, biotin-AF4 peptide, FLAG-AF9, single point | inhibition, % at 10 µM | AID 651704, 2012 | Protein AF-9 (Homo sapiens), P42568 | 0.47% of 350,000 active;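 active = every replicate reaching a set inhibition limit, whatever the replicate mean, cut at about 25% in these data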;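 also: 0% = plate neutral control median and 100% = total signal loss; the record names both 10 and 1 µM as test concentration; the first replicate is given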
Target sequence (P42568 whole entry, looked up): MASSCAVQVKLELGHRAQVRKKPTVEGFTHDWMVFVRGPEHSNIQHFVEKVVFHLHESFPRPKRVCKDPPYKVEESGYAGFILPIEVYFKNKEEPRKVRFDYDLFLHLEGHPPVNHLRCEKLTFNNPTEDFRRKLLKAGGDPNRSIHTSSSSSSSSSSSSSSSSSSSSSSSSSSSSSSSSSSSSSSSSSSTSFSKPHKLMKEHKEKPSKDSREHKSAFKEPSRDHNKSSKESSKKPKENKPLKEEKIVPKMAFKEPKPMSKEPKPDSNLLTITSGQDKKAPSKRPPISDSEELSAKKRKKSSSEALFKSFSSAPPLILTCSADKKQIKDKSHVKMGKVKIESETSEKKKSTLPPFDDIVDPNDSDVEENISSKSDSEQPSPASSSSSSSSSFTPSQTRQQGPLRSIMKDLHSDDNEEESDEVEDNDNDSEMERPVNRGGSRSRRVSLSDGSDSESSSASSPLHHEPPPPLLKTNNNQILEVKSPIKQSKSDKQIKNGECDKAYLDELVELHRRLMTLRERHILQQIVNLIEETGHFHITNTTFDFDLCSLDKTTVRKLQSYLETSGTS
A1 inh = caspase 3/7 activation in MEF A1-2A-BIM cells, primary screen, A1 inhibitor project, cell-based, luminescence, HTS; AID 2462, 2010; caspase activation, % (test concentration not listed); Caspase-Glo 3/7 luminescence, 3 h; percent of clofoctol response, vehicle zero; 0.066% of 330,000 active;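 active = over half of replicate activation scores above 10%, or exactly half above 10 with the replicate mean above 10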;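 also: wells of about 30 µL received 50 nL stock; many hits fall short of the cut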
Beta cell apopt = inhibitors of cytokine-induced beta cell apoptosis, primary screen, luminescence; protection from apoptosis, % (concentration not given with the values); INS-1E cytokine-induced death, ATP luminescence, 48 h; percent of positive-control rescue, neutral wells zero; 0.8% of 300,000 active;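 active = all replicates at 75% or more, or half of them and the mean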;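 also: 0% = cytokine-treated negative control wells and 100% = positive control rescue; higher means more ATP so stronger rescue from cytokine killing; wells of about 40 µL received 100 nL stock; the first replicate is given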
UCH37 DUB inh = inhibitors of human UCH37 deubiquitinase, primary screen, biochemical, Ub-AMC cleavage, fluorescence; Ubiquitin carboxyl-terminal hydrolase isozyme L5 (Homo sapiens), Q9Y5K5; purified proteasome/UCH37; inhibition, % (concentration not given with the values); 0.33% of 330,000 active;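 active = mean of two replicates above 20%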;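 also: 0% = compound-free wells with enzyme and 100% = wells lacking proteasome; stock transfer was 100 nL into about 20 µL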
Target sequence (Q9Y5K5 whole entry, looked up): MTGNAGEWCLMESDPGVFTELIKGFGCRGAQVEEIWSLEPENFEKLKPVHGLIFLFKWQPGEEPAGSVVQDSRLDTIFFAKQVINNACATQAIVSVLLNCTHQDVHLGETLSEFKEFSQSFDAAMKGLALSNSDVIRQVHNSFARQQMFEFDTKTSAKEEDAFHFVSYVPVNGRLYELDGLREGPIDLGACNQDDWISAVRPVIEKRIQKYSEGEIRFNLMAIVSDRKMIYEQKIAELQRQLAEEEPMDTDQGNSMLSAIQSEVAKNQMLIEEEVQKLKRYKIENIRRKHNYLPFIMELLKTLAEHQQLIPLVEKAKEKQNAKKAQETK
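Material: human UCH37 enzyme supplied as purified proteasome complex / Amount: 0.15 nM proteasome as dispensed / Buffer or medium: pH 7.4 Tris-HCl (50 mM) with ovalbumin, ATP-MgCl2, DTT / Times: preincubation 30 min, reaction 25 min, room temperature / Technique: AMC fluorescence from Ub-AMC cleavage, excitation 355 nm, emission 460 nm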
Ecoli growth = E. coli growth inhibition, primary screen, OD600 | OD600 absorbance (concentration not given with the values) | AID 1053175, 2014 | Escherichia coli growth, 23 h; hits give low values | 0.21% of 330,000 active;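 active = OD600 absorbance below the run mean of sample wells minus 3.6 SD, in any replicate, cut at about 0.56 in these data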;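 also: stock transfer was 300 nL into about 60 µL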
rRNA inh HTS OD600 = also measured in rRNA inh HTS; calls as there; OD600 change, %; measured here: OD600 growth;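 optical density of the mix in the first replicate; 0 = DMSO median and -100 = no signal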
rRNA inh HTS RFP = second read-out of rRNA inh HTS, no call of its own (marks repeat the call); RFP signal change, %; measured here: RFP humanized mutant strains;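 first replicate; 0 = DMSO median and -100 = no signal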
* marks the source's active call; other numbers are inactive results; i = inactive; . = not tested or not shown. The list is partial (hit frequency here may not be typical).

SMILES | rRNA inh HTS | rRNA inh HTS OD600 | rRNA inh HTS RFP | T cruzi repl | FGF22 binding | AF4-AF9 inh | A1 inh | Beta cell apopt | UCH37 DUB inh | Ecoli growth
COc1cc([N+](=O)[O-])ccc1NC(=O)CCS(=O)(=O)c1ccc2c(c1)n(C)c(=O)c(=O)n2C | 4.1 | 4.0 | -0.3 | 19.1 | i | -2.6 | 0.3 | -0.8 | 2.1 | 0.656
O=C(CSc1nc2ccccc2[nH]1)N1c2ccccc2Sc2ccccc21 | . | . | . | 29.7 | i | -28.5 | -1.0 | -2.1 | 6.4 | 0.687
Cc1cccc(OCC(=O)Nc2ccncc2)c1 | 9.4 | 6.0 | -0.4 | -16.5 | i | -6.1 | -0.1 | 2.4 | 0.8 | 0.625
COC(=O)c1c(NC(=O)Cc2cccs2)sc(C(=O)NC2CCCCC2)c1C | 11.0 | 10.1 | 3.4 | 7.1 | i | -0.7 | 1.1 | -1.5 | -0.3 | 0.69
O=C(C1CCN(S(=O)(=O)c2cccs2)CC1)N1CCCCC1 | 4.3 | 2.7 | -0.8 | -1.9 | i | -3.3 | 0.8 | -1.7 | 1.8 | 0.672
CCN(CC)CCNc1cc(C)nc2c1C(=O)C(=O)C=C2N1CCCCC1 | -9.7 | -2.4 | 0.0 | 60.4* | i | -6.5 | 0.5 | -6.9 | 3.4 | 0.678
O=C(c1cccs1)N1CCN(c2cc(Cl)ccc2Cl)CC1 | -26.9 | -24.3 | -2.3 | 0.8 | i | -3.2 | 0.8 | . | 3.3 | 0.654
Cc1ccc(C(=O)N2CCN(C(=O)c3ccccc3)C2c2ccc(N(C)C)cc2)cc1 (stereo not given) | . | . | . | 2.2 | . | . | -0.1 | -8.6 | 1.2 | 0.696
Nc1ncnc2c1ncn2[C@@H]1O[C@H](CNS(=O)(=O)c2ccc(-c3ccno3)s2)[C@@H](O)[C@H]1O | 8.0 | 12.2 | 4.4 | . | i | -3.0 | . | . | -1.8 | 0.718
S=c1[nH]c(-c2ccccc2)cn1/N=C/c1cccc2ccccc12 | -19.3 | -29.7 | 0.6 | 14.7 | i | 0.5 | -1.0 | 5.9 | . | .
O=C(c1ccccc1)N1CCN(CC#CC2(O)CCCCC2)CC1 | . | . | . | -3.1 | . | . | 0.3 | . | 2.1 | 0.627
C[C@H](NC(=O)c1nc[nH]c1C(=O)NCC(=O)OCc1ccccc1)C(=O)OCc1ccccc1 | -2.6 | -6.9 | 17.8 | -1.6 | i | 1.7 | -0.2 | -2.1 | 2.3 | .
COCCNC(=O)c1ccc(N2CC3CC(C2)c2cccc(=O)n2C3)c(NC(=O)c2ccc(Br)o2)c1 (stereo not given) | 15.6 | 12.1 | 1.0 | -8.9 | i | 0.6 | 0.0 | -3.1 | 0.7 | 0.666
CC(=O)CCC1C2C(O)C(C(C)C)C(OC(=O)/C=C/c3ccccc3)CC12C (stereo not given) | -4.4 | 2.8 | -6.3 | 13.9 | i | 6.4 | 0.9 | -4.4 | 0.0 | 0.723
CC1(C)CC(OC(=O)c2ccco2)CC(C)(C)N1O | . | . | . | -21.0 | . | . | 0.0 | 0.8 | 3.8 | 0.785
Cc1ccc(C(=O)N(CCN2CCCCC2)CC2CCCN(C3CCCC3)C2)s1 (stereo not given) | 14.9 | 22.5 | 8.3 | 33.3 | i | 5.1 | . | . | 4.9 | 0.727
Cc1cccc(NC(=O)c2ccccc2NC(=O)Cc2ccccc2)c1C | -4.4 | 5.6 | -4.7 | 1.8 | i | 0.7 | 0.1 | . | 0.7 | 0.66
CC(CCc1ccccc1)NC(=O)CCNS(=O)(=O)c1ccccc1C(F)(F)F (stereo not given) | 3.6 | 0.8 | 2.7 | . | i | -3.6 | 1.3 | -2.8 | 1.9 | 0.664
CCOC(=O)CN1CC23C=CC(O2)C(C(=O)NCc2cccs2)C3C1=O (stereo not given) | . | . | . | 3.8 | . | . | 0.3 | -1.9 | 0.5 | 0.735
O=C(Cc1cccc(Cl)c1)Nc1ccc(Br)cc1 | -32.8 | -54.8 | -2.6 | 0.2 | i | -2.6 | 0.6 | 3.9 | -0.1 | 0.66
CCn1c2ccccc2c2cc(NC(=O)CSc3nnc(-c4ccc(OC)c(OC)c4)n3N)ccc21 | . | . | . | 21.3 | . | . | -0.5 | -1.1 | 2.8 | 0.701
C#CCOCCOCCOCCNc1nc(N2CCN(C(=O)[C@H]([C@@H](C)O)n3cc(CCCCN)nn3)CC2)nc(N2CCN(C(=O)[C@H]([C@@H](C)CC)n3cc(CCCN=C(N)N)nn3)CC2)n1 | -1.9 | 6.2 | -12.7 | -17.6 | i | 12.7 | -2.9 | . | 3.5 | .
CC1(C)C(=O)OC(c2cccs2)C(C)(C)C1=O (stereo not given) | . | . | . | -27.7 | . | . | 0.3 | -8.5 | -2.0 | 0.684
CC1CCN(S(=O)(=O)c2ccc3c(c2)N(C)C(=O)CC(=O)N3C)CC1 | 7.9 | 9.6 | -0.2 | 2.6 | i | -6.8 | -0.6 | 1.8 | 1.4 | 0.732
CC1CCCCN1C(=O)Cn1c(=O)oc2cc(S(=O)(=O)N3CCCCC3)ccc21 (stereo not given) | 3.4 | 4.6 | -0.5 | -2.2 | i | -2.7 | 0.7 | -8.0 | 3.8 | 0.642
Cc1cc(OC(C)C(=O)N2CCN(c3ccc(F)cc3)CC2)c2c(C)cc(=O)oc2c1 (stereo not given) | 2.5 | -0.7 | 0.9 | -5.7 | i | -15.9 | 0.3 | 0.4 | -9.5 | 0.615
O=S(=O)(NCCN1CCOCC1)c1ccc(Cl)c(Cl)c1 | 3.7 | 18.3 | -0.8 | -1.9 | i | -2.1 | 0.3 | . | 4.8 | 0.616
COc1cc(CN2CCN(Cc3c[nH]c4ccccc34)CC2CCO)cc(OC)c1 (stereo not given) | 1.7 | 6.3 | 5.0 | -3.1 | i | 7.9 | -0.1 | . | 1.4 | 0.692
C=CCSc1nc2sc3c(c2c(=O)[nH]1)CC(C)(CC)OC3 (stereo not given) | 10.8 | 11.0 | -0.5 | 6.4 | i | -1.5 | 0.1 | 1.5 | 1.6 | 0.682
COc1ccccc1N1CCN(CC(=O)c2c(C)[nH]c3ccccc23)CC1 | -3.9 | -2.6 | 2.6 | 13.2 | i | 8.5 | 0.3 | -1.8 | 2.7 | 0.69
CCC(C(=O)Nc1ccsc1C(=O)OC)c1ccccc1 (stereo not given) | -28.7* | 12.3* | -5.8* | -0.2 | i | -5.1 | 0.7 | -2.8 | 2.2 | 0.69
O=C(COC(=O)c1ccc(N2CCCC2=O)cc1)c1ccccc1 | 9.2 | 18.3 | 1.2 | -2.3 | i | -0.1 | -4.2 | 1.2 | 7.4 | 0.663
Cc1cccc(Cn2nnc3ccccc32)c1O | -5.0 | -9.9 | -1.8 | -19.4 | i | -1.8 | -0.5 | -5.6 | -1.1 | 0.672
O=C(Nc1ccccc1C(=O)NCC1CCCO1)c1ccc(Cl)cc1Cl (stereo not given) | . | . | . | 6.0 | . | . | 1.3 | -1.6 | 4.0 | 0.701
O=C(Nc1ccccc1)N1CCN(Cc2ccc3c(c2)OCO3)CC1 | 3.2 | 0.9 | -0.9 | -15.9 | i | -4.3 | 1.2 | -2.9 | 0.8 | 0.7
O=C1OCCN1C(=O)[C@H]1[C@H](c2ccc(Cl)cc2)C(c2ccc(F)cc2)=NN1c1ccc(Br)cc1 | 14.1 | 12.6 | -2.7 | . | i | -10.8 | . | . | -420.1 | 0.704
CCc1nc2nc(C)c(NS(=O)(=O)c3ccc(C)c(C)c3)c(=O)n2[nH]1 | 0.9 | 4.4 | -2.4 | -13.0 | i | 1.4 | 0.0 | 3.8 | 1.9 | 0.67
CC(Oc1ncnc2ccccc12)C(=O)Nc1cccc(S(=O)(=O)N2CCOCC2)c1 (stereo not given) | -6.8 | 9.2 | 8.4 | -5.1 | i | 28.8* | 0.1 | -3.4 | 7.3 | 0.693
COc1ccc(OC)c(-n2c(=S)[nH]c3c(sc(=S)n3-c3ccccc3)c2=O)c1 | 4.1 | 7.1 | 1.4 | -0.9 | i | -4.0 | 0.3 | 2.2 | 7.9 | 0.707
COc1cc2c(cc1OC)C(COc1ccc(F)cc1)N(C(=O)c1ccco1)CC2 (stereo not given) | . | . | . | 15.0 | . | . | -0.1 | -4.4 | 1.8 | 0.638
COc1ccc(/C(O)=C2\C(=O)C(=O)N(CCN(C)C)C2c2cc(OC)c(OC)c(OC)c2)c(C)c1 (stereo not given) | . | . | . | -11.7 | . | . | 0.1 | -4.6 | 2.3 | 0.768
Fc1cccc(-n2c(-c3ccco3)nc3nc4ccccc4nc32)c1 | . | . | . | -1.7 | . | . | -0.7 | 1.8 | -183.8 | 0.727
Cc1ccoc1C(=O)N1CCCCC1C(=O)O (stereo not given) | 21.1 | 12.2 | 2.2 | -11.9 | i | -1.7 | 0.3 | 4.8 | 4.6 | 0.689
CCC(=O)Nc1ccc(S(=O)(=O)Nc2cccc(C)c2)cc1OC | . | . | . | 4.2 | . | . | 0.1 | -3.0 | -0.1 | 0.691
COc1ccc(CCNC(=O)CSc2nc(O)c(C(C)C)c(=O)[nH]2)cc1OC | . | . | . | 4.0 | . | . | 0.3 | -4.3 | 6.7 | 0.651
COc1ccc(-c2cc(C)no2)cc1S(=O)(=O)NCCCN1CCCCCC1 | -0.7 | 6.4 | 3.0 | 4.4 | i | 0.3 | -0.5 | -4.2 | 2.6 | 0.665
C=CCn1c(=O)c(C(=O)NCc2ccccc2)c(O)c2ccccc21 | -5.6 | -14.8 | 3.2 | -19.9 | i | 2.5 | 1.4 | 12.2 | 5.0 | 0.675
O=S(=O)(Oc1ccc(C(=S)N2CCOCC2)cc1)c1ccc(Cl)cc1 | -17.8 | -17.3 | 0.0 | 9.4 | i | 3.8 | -0.5 | 6.0 | 2.1 | 0.666
CCN(C(=O)COC(=O)c1ccc(OC)c(S(=O)(=O)N2CCCc3ccccc32)c1)C1CCS(=O)(=O)C1 (stereo not given) | 6.7 | 3.1 | 0.3 | -2.0 | i | -1.1 | 0.1 | -1.4 | 3.1 | 0.695
O=C(Cn1cnc2c(OCc3ccccc3)ncnc21)NCc1ccc2[nH]ccc2c1 | 4.2 | 4.1 | 2.9 | . | i | -0.4 | 0.1 | -6.7 | 0.0 | 0.673
CC1CN=C(c2ccccc2)O1 (stereo not given) | 1.4 | 9.4 | -0.2 | . | . | -6.4 | . | . | 2.0 | 0.681
CCOC(=O)CSc1nnc(CNC(=O)c2ccc(OC)cc2)n1C1CCCCC1 | . | . | . | -15.0 | . | . | -0.1 | -4.6 | 2.8 | 0.713
